Source: PubChem
LASV entry inh – qHTS for Inhibitors of binding or entry into cells for Lassa Virus; Lassa virus pseudotype entry inhibition, cell reporter; control for the full effect not named in the record; Potency, µM (series often up to 37.9 µM), inactives show at the highest dose activity change, negative = inhibition, usual class: inhibitors; actives 1.2% (n = 300,000); AID 540256, 2011; active means well fitted inhibition curve with a large enough effect; inconclusive means small, poorly fitted or top-dose-only effect, or effect the other way; inactive means flat fitted curve, though single readings scatter; tested in HEK293 cells; note: % is set by controls: 0 for no effect and ±100 for the full control effect; nearly all actives have a fitted effect of over 50% in size; luciferase read-out
RE007 growth inh – qHTS Assay for Inhibitors of the HIV-1 protein Vpr | Potency, µM (series often up to 92.2 µM), for inactives: at the top dose activity change, negative = less growth | S. pombe RE007 Vpr strain, BacTiter-Glo ATP luminescence, 24 h; control for the full effect not named in the record | actives 0.21% (n = 360,000); active = well fitted falling curve with a large enough effect; inconclusive = small, poorly fitted or top-dose-only effect; inactive = no such curve, though single readings can be large or run the other way;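 note: % is set by controls: 0 for no effect and ±100 for the full control effect; nearly all actives have a fitted effect of over 50% in size; the assay follows cell death caused by Vpr and the record does not say whether a fall means rescue or toxicity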
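Fission yeast RE007 carrying one integrated HIV-1 vpr copy, seeded at OD 0.01 in PMG+AL medium with 23 nL pinned compound. Grown 24 h at 30 degrees; viability read by BacTiter-Glo luminescence after 5 min.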
NS1 function inh – qHTS Assay for Inhibitors of Influenza NS1 Protein Function. Potency, µM (top dose mostly 46.1 µM), without a hit: at the highest dose activity, positive = more growth. S. cerevisiae slowed by influenza A NS1, growth recovery by OD600. actives 0.4% (n = 270,000). AID 2326, 2010; note: actives are rising curves; nearly all actives have a fitted effect of over 50% in size
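OD600 was taken as the measure of yeast growth restored by compound in an NS1-expressing S. cerevisiae strain. Cells had been washed out of glucose medium and diluted 1:100 into galactose -URA medium, pH 6.0.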
MARV entry inh – qHTS for inhibitors of binding or entry into cells for Marburg Virus | Marburg virus pseudotyped entry inhibition, cell reporter; control for the full effect not named in the record; about a third of the inactives were read at about 46 µM | Potency, µM (top dose mostly 37.8 µM), for the others: at the top dose activity change, negative = inhibition, usual class: inhibitors | actives 1.8% (n = 300,000) | AID 540276, 2011; active = well fitted inhibition curve with a large enough effect; inconclusive = small, poorly fitted or top-dose-only effect, or effect the other way; inactive = flat fitted curve, though single readings scatter; tested in HEK293 cells; about a fifth of its hits are not listed in these tables; note: % is set by controls: 0 for no effect and ±100 for the full control effect; luciferase read-out
2A StopGo – High Throughput Screening for Foot and Mouth Disease Virus Antivirals; Potency, µM (doses to about 57.9 µM), inactives show at the highest dose signal change, negative = less light; human cells with a luciferase reporter of 2A StopGo recoding; control for the full effect not named in the record; AID 1159524, 2015; actives 1.2% (n = 410,000); active = well fitted falling curve with a large enough effect; inconclusive = small, poorly fitted or top-dose-only effect; inactive = no such curve, though single readings can be large or run the other way; tested in HEK293T cells; note: % is set by controls: 0 for no effect and ±100 for the full control effect; nearly all actives have a fitted effect of over 45% in size; luciferase light after 4 h
Cruzain Triton – qHTS Assay for Promiscuous and Specific Inhibitors of Cruzain (with detergent) | purified cruzain, Z-FR-AMC fluorescence, 0.01% Triton | Potency, µM, for inactives: max response, negative = inhibition, hits mostly inhibitors | actives 0.43% (n = 200,000) | AID 1478, 2009; active = well fitted curve in the direction sought with a large enough effect; inconclusive = small, poorly fitted or top-dose-only effect, or another doubt; inactive = no such curve, though single readings can be large; an effect the other way counts as inactive or inconclusive;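 note: plate controls were neutral wells for no effect and buffer without enzyme for full effect; nearly all actives have a fitted effect of over 40% in size; top concentration of the series not given in the record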
Target sequence (P25779 123-467 limits assumed): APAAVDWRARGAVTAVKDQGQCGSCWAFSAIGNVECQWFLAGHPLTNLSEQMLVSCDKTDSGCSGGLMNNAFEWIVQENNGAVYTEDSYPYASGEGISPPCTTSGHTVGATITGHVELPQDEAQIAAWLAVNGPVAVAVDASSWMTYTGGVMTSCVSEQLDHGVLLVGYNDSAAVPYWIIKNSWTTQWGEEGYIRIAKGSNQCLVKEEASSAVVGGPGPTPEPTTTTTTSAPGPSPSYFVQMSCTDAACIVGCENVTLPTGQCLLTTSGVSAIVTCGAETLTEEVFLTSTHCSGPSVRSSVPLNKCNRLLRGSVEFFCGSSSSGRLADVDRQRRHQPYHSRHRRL
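Steps: dispense cruzain (1.5 nM final) in acetate buffer pH 5.5 with DTT and 0.01% Triton X-100; pin-transfer compounds; incubate 15 min RT; add Z-FR-AMC (2 uM final); read fluorescence every 30 s, using the 60 s intensity change.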
SARS PLpro yeast – qHTS of Yeast-based Assay for SARS-CoV PLP. S. cerevisiae expressing SARS-CoV PLpro, growth rescue; control for the full effect not named in the record. actives 0.19% (n = 330,000). Potency, µM (titrated, usually from 32.9 µM), without a hit: top-dose activity, positive = growth rescue. AID 485353, 2010; note: 0% is about no effect; nearly all actives have a fitted effect of over 55% in size; growth read by luminescence after 48 h
Cruzain noTriton – qHTS Assay for Promiscuous and Specific Inhibitors of Cruzain (without detergent). purified cruzain, Z-FR-AMC fluorescence, no detergent. actives 2.3% (n = 200,000). Potency, µM, for the others: max response, negative = inhibition, most hits filed as inhibitors. AID 1476, 2009. Cruzipain (Trypanosoma cruzi), P25779; active = well fitted curve in the direction sought with a large enough effect; inconclusive = small, poorly fitted or top-dose-only effect, or another doubt; inactive = no such curve, though single readings can be large; an effect the other way counts as inactive or inconclusive;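 note: plate controls were enzyme without inhibitor for no effect and buffer without enzyme for full effect; nearly all actives have a fitted effect of over 40% in size; top concentration of the series not given in the record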
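Purified cruzain at 1.5 nM, pre-incubated 15 min with compound at room temperature in 100 mM sodium acetate pH 5.5, 5 mM DTT, 0.00005% Triton X-100. Reaction started with 2 uM Z-FR-AMC; AMC fluorescence increase over 60 s gives rate.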
* marks the source's active call; other numbers are inactive results; ? = inconclusive; nt = not tested or not shown; & = joins results of further samples; [ ] = another dose, or the depositor's remark. Unless noted, calls come from the whole dose curve; as a rule, active means well fitted rising curve with a large enough effect; inconclusive means small, poorly fitted or top-dose-only effect; inactive means no such curve, though single readings can be large or run the other way. Potency is the fitted concentration of half-maximal effect.

Compound	LASV entry inh	RE007 growth inh	NS1 function inh	MARV entry inh	2A StopGo	Cruzain Triton	SARS PLpro yeast	Cruzain noTriton
CCOC(=O)C1(Cc2cccc(F)c2)CCN(CC(O)CO)CC1 (configuration not stated)	2%	-13%	2%	5%[46.1 µM]	-17%	nt	1%	nt
CCOC(=O)CSc1nnc(CNC(=O)c2ccc(OC)cc2OC)n1C	27%	-4%	-5%	8%	19%	1.7%	11%	2%
CCOC(CNC(=O)C1CCN(S(=O)(=O)c2ccc3nc4c(c(C(=O)O)c3c2)CC(C)CC4)CC1)OCC (configuration not stated)	nt	7%	10%	nt	9%	nt	1%	nt
COc1ccc(-c2nnc(SCC#CCO)o2)cc1OC	-18%	8%	-5%	-20%	-8%	4.3%	1%	5%
Cc1ccccc1-c1noc(-c2nnn(-c3ccccc3C)c2N)n1	?	nt	nt	nt	19%	1.4%	nt	6%
CC1CCC(NC(=O)c2ccc3c(c2)N(Cc2cccc(F)c2)C(=O)c2ccccc2S3)CC1 (configuration not stated)	11%[46.1 µM]	nt	nt	nt	70%[activator]	1.1%	nt	?
O=c1c2sc3nc(N4CCOCC4)c4c(c3c2nnn1Cc1ccccc1)CCCC4	17%	2%	6%	10%	-11%	-2.6%	2%	-1%
O=C(c1ccc(CS(=O)(=O)c2ccccc2)o1)N1CCN(c2ccccc2)CC1	-24%[46.1 µM]	-13%	9%	?	-9%	nt	12%	nt
CCOC(=O)/C=c1\s/c(=C\c2ccc(C)cc2)c(=O)n1CC(=O)NCc1ccco1	-1%	nt	15%	?	-3%	-1.0%	-15%	16µM*
COc1ccc(Cc2nnc(SCC(=O)Nc3cc(Cl)ccc3OC)[nH]c2=O)cc1	-15%	-13%	nt	23%	-20%	nt	-2%	nt

Compound	LASV entry inh	RE007 growth inh	NS1 function inh	MARV entry inh	2A StopGo	Cruzain Triton	SARS PLpro yeast	Cruzain noTriton
Cc1ccc(N2CCN(CCCN3C(=O)C4CCCN4C3=O)CC2)cc1 (configuration not stated)	-4%	6%	13%	1%	-12%	-0.2%	-19%	6%
Cc1c(CC(=O)NCC(=O)O)c(=O)oc2cc3oc4c(c3cc12)CCCC4	8%	3%	-3%	-7%	-5%	nt	3%	nt
Cc1ccc(C(=O)NC(=S)Nc2ccc(S(=O)(=O)N(C)c3ccccc3)cc2)cc1	-1%	17%	7%	9%[46.1 µM]	?	4.2%	2%	?
O=C(NCc1ccccn1)c1c(O)c2cccc3c2n(c1=O)CC3	9%	-13%	-123%	14%	13%	-3.9%	0%	?
CCOc1ccc(N(C(=O)c2cnccn2)C(C(=O)NC2CCCCC2)c2ccc(O)cc2)cc1 (configuration not stated)	?	-2%	-3%	?	9%	nt	0%	nt
CCCn1c(SCC(=O)Nc2cccc(F)c2)nc(O)cc1=O	1%	-16%	nt	?	-13%	nt	5%	nt
CCOC(=O)C1CCN(C(=O)C2CCN(S(=O)(=O)c3ccc4ccccc4c3)CC2)CC1	-2%	-16%	-8%	?	-18%	nt	5%	nt
c1cnc(N2CCSCC2)nc1	2%	12%	7%	-7%	nt	4.1%	-1%	9%
O=S(=O)(NCC1CCCO1)c1cnc(Cl)c(Cl)c1 (configuration not stated)	?	3%	20%	?	22%	-0.6%	13%	-7%
N=c1ncn(CC(O)CN2CCOCC2)c2nc(N3CCOCC3)[nH]c12 (configuration not stated)	1%	-3%	4%	3%&6%	-14%	0.2%	-4%	8%

Compound	LASV entry inh	RE007 growth inh	NS1 function inh	MARV entry inh	2A StopGo	Cruzain Triton	SARS PLpro yeast	Cruzain noTriton
CC1CCCN1CCC(C(N)=O)(c1ccccc1)c1ccccc1 (configuration not stated)	3%[46.1 µM]	13%	nt	?	-16%	nt	nt	nt
COc1ccc([N+](=O)[O-])cc1NC(=O)CSc1ccc2ccccc2c1	-10%	28%	3%	-17%	-25%	-7.6%	23%	-13%
Cn1nc(C(=O)OCC(=O)Nc2cccc(S(=O)(=O)N3CCCC3)c2)c2ccccc2c1=O	nt	27%	-33%	nt	-20%	nt	1%	nt
CCOC(=O)c1cn(CC)c2cc(N3CCN(C)CC3)c(F)cc2c1=O	nt	-5%	4%	nt	-3%	nt	-2%	nt
CCC(Oc1ccc2ccccc2c1)C(=O)O (configuration not stated)	13%	4%	1%	13%	-27%	0.0%	10%	2%
O=C(O)c1cccc(OCCN2CCCC2=O)c1	1%	9%	1%	14%	5%	nt	-1%	nt
CC1CC(C)CC(C)C(O)C(C#N)=CC=CCC(C2CCCC2C(=O)O)OC(=O)CC(O)C(C)C1 (configuration not stated)	1.4µM*	6.3µM*	nt	0.45µM*	?	nt	nt	nt
O=C1CC2c3ccccc3C1C1C(=O)N(CCO)C(=O)C21 (configuration not stated)	1%[46.1 µM]	13%	-2%	?	-16%	nt	1%	nt
CC1C(=O)N2CCCc3cc(NS(=O)(=O)c4ccc([N+](=O)[O-])cc4)cc1c32 (configuration not stated)	-20%	1%	nt	28%	-6%	nt	0%	nt
CN(C1CCCCC1)S(=O)(=O)c1ccccc1	19%[14.3 µM]	3%	-2%	11%	12%	2.7%	2%	-3%

Random excerpt: 2 records from the list, in no set order.
Compound	LASV entry inh	RE007 growth inh	NS1 function inh	MARV entry inh	2A StopGo	Cruzain Triton	SARS PLpro yeast	Cruzain noTriton
COc1ccc([N+](=O)[O-])cc1NC(=O)CSc1ccc2ccccc2c1	-10%	28%	3%	-17%	-25%	-7.6%	23%	-13%
O=C1CC2c3ccccc3C1C1C(=O)N(CCO)C(=O)C21 (configuration not stated)	1%[46.1 µM]	13%	-2%	?	-16%	nt	1%	nt

Other records.
Compound	LASV entry inh	RE007 growth inh	NS1 function inh	MARV entry inh	2A StopGo	Cruzain Triton	SARS PLpro yeast	Cruzain noTriton
CCOc1ccc(OCCSc2nc(N)cc(=O)[nH]2)cc1	nt	3%	-2%	nt	-1%	nt	0%	nt
CCc1nc(SCC(=O)c2ccc(Cl)s2)c2oc3ccccc3c2n1	18%	3%	5%	?	-10%	-3.2%	5%	4%
CCN(C(=O)Nc1cccc(Cl)c1)c1ccccc1	4%	4%	10%	22%	-26%	nt	3%	nt
COc1ccc(C(=O)C2CCCN(C(=O)C3CCOCC3)C2)cc1OC (configuration not stated)	nt	-12%	9%	nt	-2%	nt	-5%	nt
O=C(c1cc(-c2ccccc2)n[nH]1)N1CCN(S(=O)(=O)c2ccccc2)CC1	nt	-2%	7%	nt	-18%	nt	5%	nt
CCc1c(C(=O)Nc2cc(C)cc(C)c2)[nH]c(C)c1C(C)=O	-12%	-4%	-18%	-17%[46.1 µM]	28%	-5.6%	-25%	-3%
Cc1ccc(SCCN2CCN(CCc3ccccc3)CCC2=O)cc1	nt	?	?	nt	-5%	nt	1%	nt
c1ccc(Cc2nn[nH]n2)cc1	?	20%	0%	0%	-8%	5.4%	0%	5%
NC(=O)COc1ccc(/C=N\NC(=O)CC(=O)NCCc2ccccc2)cc1	-2%	-1%	1%	20%	-13%	nt	2%	nt
O=C(O)CNC(=O)C(c1ccccc1)c1ccccc1	16%	8%	1%	10%[46.1 µM]	2%	nt	1%	nt

Compound	LASV entry inh	RE007 growth inh	NS1 function inh	MARV entry inh	2A StopGo	Cruzain Triton	SARS PLpro yeast	Cruzain noTriton
O=C(CC1N=C2c3ccccc3N=C(SCc3ccc(Cl)cc3)N2C1=O)NCc1cccs1 (configuration not stated)	-23%[46.1 µM]	nt	nt	nt	-16%	-1.5%	nt	9%
COc1ccc(/C=N/NC(=O)CCSc2nc3ccccc3s2)cc1OC	-6%	-4%	-6%	-15%	0%	-9.5%	-2%	?
O=C(CCN1CCOCC1)Nc1cc(C(=O)Nc2ccccc2F)ccc1N1CC2CC(C1)c1cccc(=O)n1C2 (configuration not stated)	2%[46.1 µM]	2%	4%	9%[46.1 µM]	24%	nt	-5%	nt
COc1ccc(-n2cc(C(=O)NCc3cccc(OC)c3)c3ccccc3c2=O)cc1	-16%[46.1 µM]	nt	nt	nt	?	-4.3%	nt	-23%
COc1ccc(CNC(=O)c2ccc3nccnc3c2)cc1	20%	7%	-15%	12%	-16%	-6.5%	-5%	-11%
Cc1cccc(N(CC(=O)N/N=C/c2cc([N+](=O)[O-])ccc2Cl)S(C)(=O)=O)c1C	-16%	-5%	11%	-26%	0%	-6.2%	-2%	0%
NC(=O)C1(N2CCCCC2)CCN(C2CC(=O)N(Cc3ccc(N4CCCC4=O)cc3)C2=O)CC1 (configuration not stated)	?	-5%	4%	-9%	15%	3.7%	-9%	-7%
COc1ccc(/C(C)=N/NC(=O)CNC(=O)CCc2ccccc2)c(OC)c1	-29%	4%	-1%	-20%	11%	nt	0%	nt
CC1CN(CCc2ccccc2)c2nc3c(c(=O)n(C)c(=O)n3C)n2C1 (configuration not stated)	nt	12%	4%	nt	6%	nt	13%	nt

Individual results from the entries so far:
In LASV entry inh, NC(=O)COc1ccc(/C=N\NC(=O)CC(=O)NCCc2ccccc2)cc1 shows -2%
In RE007 growth inh, Cc1cccc(N(CC(=O)N/N=C/c2cc([N+](=O)[O-])ccc2Cl)S(C)(=O)=O)c1C shows -5%
In RE007 growth inh, O=C(O)c1cccc(OCCN2CCCC2=O)c1 shows 9%
In NS1 function inh, NC(=O)C1(N2CCCCC2)CCN(C2CC(=O)N(Cc3ccc(N4CCCC4=O)cc3)C2=O)CC1 (configuration not stated) shows 4%
In MARV entry inh, COc1ccc(/C=N/NC(=O)CCSc2nc3ccccc3s2)cc1OC shows -15%

Outcome played no part in choosing rows. About 4.5% of those tested had a hit in this group.
